# Screens: PubChem BioAssay, National Center for Advancing Translational Sciences (NCATS)
# PINK1 modulator: A Quantitative High throughput Screen to Identify Chemical Modulators of PINK1 Expression; PINK1 immunofluorescence, high-content cytometry, 24 h; Potency, µM (series often up to 76.6 µM), without a hit: at the top dose activation (PINK1 increase), actives largely listed as activators; 0.2% of 410,000 active; active = well fitted activation curve with a large enough effect; inconclusive = small, poorly fitted or top-dose-only effect; inactive = flat fitted curve, though single readings scatter; cell line not stated here;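 also: potency is read from the fitted curve at half-maximal effect; % of control where 0% means no effect; nearly all actives have a fitted effect of over 65% in size; a mitochondrial uncoupler was the plate control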
#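 Stable cell line treated 24 h with compounds at 5 concentrations (CCCP controls), then fixed and immunostained for PINK1 plus nuclear and cell stains; PINK1 immunofluorescence quantified by laser-scanning microplate cytometry.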
# D2 ag: Beta-Arrestin HTS for Positive Allosteric Modulators of the Human D2 Dopamine Receptor: Agonists. DiscoveRx PathHunter D2 beta-arrestin, luminescence, 90 min; 100% = 57 uM dopamine signal. activation, % (no concentration beside the values). AID 624465, 2012. 0.084% of 360,000 active. D(2) dopamine receptor (Homo sapiens), P14416; in the data active = activation above about 40%; inconclusive = about 15% to 40%; inactive = below about 15%; also: compound concentration not given in the record; the text of the record calls up to 30% inactive
# Target sequence (P14416 whole entry, looked up): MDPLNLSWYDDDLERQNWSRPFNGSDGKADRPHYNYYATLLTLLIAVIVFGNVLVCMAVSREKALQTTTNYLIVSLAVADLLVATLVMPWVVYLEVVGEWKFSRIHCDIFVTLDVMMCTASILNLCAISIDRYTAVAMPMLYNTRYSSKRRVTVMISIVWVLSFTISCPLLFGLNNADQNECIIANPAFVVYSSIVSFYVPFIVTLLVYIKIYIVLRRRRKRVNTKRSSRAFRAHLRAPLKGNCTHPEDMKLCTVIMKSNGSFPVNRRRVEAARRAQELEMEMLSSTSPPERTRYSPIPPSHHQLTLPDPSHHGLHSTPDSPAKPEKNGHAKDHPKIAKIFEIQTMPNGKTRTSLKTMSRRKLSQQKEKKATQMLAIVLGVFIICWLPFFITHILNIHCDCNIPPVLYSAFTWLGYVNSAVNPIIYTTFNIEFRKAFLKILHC
#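 Agonist mode: compounds alone added to overnight-plated D2 PathHunter cells for 90 min at 37 C, with 57 uM final dopamine (EC100) defining full response. Beta-arrestin recruitment detected by chemiluminescent reagent, read after 1 h at ambient temperature.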
# Sfp PPTase inh: qHTS Assay for Inhibitors of Bacillus subtilis Sfp phosphopantetheinyl transferase (PPTase); 4'-phosphopantetheinyl transferase ffp (Bacillus subtilis), Q9F4F7; Biochemical Sfp PPTase activity, qHTS; Potency, µM, without a hit: max response, negative = inhibition, actives largely listed as inhibitors; 3.5% of 310,000 active; AID 1490, 2009; active = well fitted inhibition curve with a large enough effect; inconclusive = small, poorly fitted or top-dose-only effect, or another doubt; inactive = no such curve, though single readings can be large or run the other way;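 also: the enzyme is Sfp with the accession as filed and its product quenches rhodamine fluorescence; potency is read from the fitted curve at half-maximal effect; 0% = enzyme reaction without inhibitor and -100% = no enzyme wells; top concentration of the series not given in the record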
#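 Buffer: 50 mM Hepes-Na pH 7.6, 10 mM MgCl2, 0.01% Nonidet P-40, 0.01% BSA. Enzyme 15 nM, pre-exposed to compound 15 min; substrates then added and fluorescence change tracked over 30 min.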
# Menin MLL FP FL: qHTS Assay for Inhibitors Targeting the Menin-MLL Interaction in MLL Related Leukemias: Competition With Fluorescein Labeled MLL-derived Peptide; AID 1766, 2009; Fluorescence polarization, fluorescein-MLL peptide displacement from menin; FP activity change, % at 61.4 µM; 290,000 tested, under 10 active; inconclusive = falling polarisation curve, or a change in total fluorescence; inactive = total fluorescence flat and polarisation flat or rising; no compound was filed as active; the % refers to the polarisation; negative = inhibition;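 also: % of control where 0% means no effect; inhibitors lower the polarisation; unlabelled MLL peptide was the positive control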
# gsp agonist: qHTS for Agonist of gsp, the Etiologic Mutation Responsible for Fibrous Dysplasia/McCune-Albright Syndrome: qHTS. gsp mutant cells, cAMP HTRF, 30 min; control for the full effect not named in the record. Potency, µM (top dose mostly 76.9 µM), for inactives: at the top dose activation (cAMP increase), hits mostly activators. 0.13% of 340,000 active. AID 624287, 2012; active = well fitted activation curve with a large enough effect; inconclusive = small, poorly fitted or top-dose-only effect, or another doubt; inactive = no such curve, though single readings can be large or run the other way; cell line not stated here;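 also: phosphodiesterase inhibitor Ro 20-1724 added with compounds to block cAMP breakdown; potency is read from the fitted curve at half-maximal effect; nearly all actives have a fitted effect of over 60% in size; about a fifth of the inactives were tested at one dose only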
#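 Cells in DMEM/10% FBS with G418 were pretreated with compounds in DMSO plus […] (300 uM stock) for 30 min at 37C. cAMP was measured by HTRF (cAMP-d2 plus anti-cAMP antibody-K) after 30 min at room temperature.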
# ClpP mod: qHTS Assay for Activators of ClpP; 1.9% of 340,000 active; Potency, µM (titrated, usually from 57.5 µM), for inactives: top-dose activity change, negative = active; AID 651965, 2013; purified B. subtilis ClpP, FRET peptide cleavage, 20 min; active = well fitted falling curve with a large enough effect; inconclusive = small, poorly fitted or top-dose-only effect; inactive = no such curve, though single readings can be large or run the other way; also: potency is read from the fitted curve at half-maximal effect; the source files actives as falling curves though it sought activators and does not explain the sign; nearly all actives have a fitted effect of over 65% in size; many hits overshoot -100%
# Target sequence (P80244 whole entry, looked up): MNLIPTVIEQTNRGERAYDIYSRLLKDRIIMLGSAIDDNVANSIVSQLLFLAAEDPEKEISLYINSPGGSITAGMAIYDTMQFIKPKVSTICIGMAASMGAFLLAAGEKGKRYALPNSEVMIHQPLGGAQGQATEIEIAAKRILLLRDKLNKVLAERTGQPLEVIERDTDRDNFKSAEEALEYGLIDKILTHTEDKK
#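 ClpP 10 microg/mL final, pH 8 Tris/KCl buffer with BSA, glycerol, Tween-20; compound pinned in; FRET-FV substrate; RT 20 min; Ex320/Em430; ΔFRET vs ADEP 5.8 microM, DMSO, no enzyme.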
# gsp antagonist: qHTS for Antagonists of gsp, the Etiologic Mutation Responsible for Fibrous Dysplasia/McCune-Albright Syndrome: qHTS. Potency, µM (top dose mostly 76.9 µM), without a hit: at the highest dose activity change, negative = inhibition, usual class: inhibitors. gsp-mutant cells, cAMP HTRF, 30 min; control for the full effect not named in the record. 0.4% of 340,000 active; active = falling curve of any shape with a large fitted effect; inconclusive = falling curve, mostly with a smaller effect; inactive = flat or rising curve; cell line not stated here;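 also: intracellular cAMP measured with PDE inhibitor Ro 20-1724 present during compound exposure; potency is read from the fitted curve at half-maximal effect; % is scaled to controls: 0 for no effect and ±100 for the full control effect; nearly all actives have a fitted effect of over 65% in size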
#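 G418-selected cells were plated in DMEM/10% FBS for 16-24 h at 37C, then treated with compounds plus the PDE inhibitor […] (300 uM solution added) for 30 min at 37C. Intracellular cAMP was measured by HTRF after 30 min lysis at room temperature.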
# Active calls of the source: *; ? = inconclusive; · = not tested or not shown; [ ] = remark or other dose.
SMILES,PINK1 modulator,D2 ag,Sfp PPTase inh,Menin MLL FP FL,gsp agonist,ClpP mod,gsp antagonist
COc1ccccc1N(CN1C(=O)c2ccccc2C1=O)C(=O)c1cccc(C)c1,1.9%,0.9,7%,3.6,-15%,-0.7%,-21%
CC1=C(C(=O)N2CCOCC2)CC(CC(=O)NCCN2CCOCC2)C(=O)N1Cc1ccccc1 (stereo unspecified),4.1%,-6.2,·,·,-22%,-2.2%,·
COc1ccccc1C(=O)NCCC(=O)NNC(=O)Cn1ccc(C(F)(F)F)n1,-1.7%,-2.1,·,·,-12%[15.4 µM],·,10%
CCOC(=O)C1(CCc2ccccc2)CCN(Cc2ccccn2)CC1,-1.6%,0.5,3%,-1.4,-1%[15.4 µM],·,-2%
CC1CN(c2nc3ccccc3nc2NS(=O)(=O)c2ccccc2)CC(C)O1 (stereo unspecified),0.4%,-2.2,·,·,?,·,-3%
Cn1c(=O)c(NC(=O)c2ccccc2)c2n(c1=S)CCCCC2,-3.1%,-0.4,6%,2.5,9%,-0.1%,18%
Fc1cccc(/C=N/Nc2nccnc2Cl)c1,-1.9%,-0.5,13%,-1.4,-11%,-1.7%,-4%
COc1ccc(/C=N/Nc2nc(Nc3ccccc3)nc(N3CCCC3)n2)cc1,2.7%,1.3,-3%,-3.9,-14%[15.4 µM],·,-18%
O=C(NC1CCCC1)C(c1ccncc1)N(C(=O)c1csnn1)c1ccccc1 (stereo unspecified),0.7%,-1.8,7%,-1.3,21%[15.4 µM],·,·
Nc1nc(N)n(-c2ccccc2)c(=Nc2ccccc2)n1,0.2%,1.8,14%,-2.7,35%,-0.6%,18%
N#Cc1ccsc1NC(=O)CN1CCOCC1,0.5%,-5.6,2%,3.2,?,-1.8%,4%
Cc1cccc(NS(=O)(=O)c2c(C(=O)N3CCCC3)c(C)n(C)c2C)c1,-0.5%,-1.7,0%,-3.3,3%,-4.6%,-11%
O=C(NCc1ccncc1)c1cc(S(=O)(=O)N2CCOCC2)c(Cl)cc1Cl,-0.7%,-4.5,·,·,0%,1.3%,-4%
O=[N+]([O-])c1ccc(N2CCN(c3ccccn3)CC2)c(Cl)c1,-0.7%,0.1,-11%,-1.4,21%[15.4 µM],·,?
CCOc1ccc2nc(SCC(=O)c3cccs3)sc2c1,0.3%,-1.1,1%,2.5,-12%,4.5%,-19%
CCN1CCN(CCCNC(=O)CCC(=O)N2CC(C)Oc3ccc(C)cc32)CC1 (stereo unspecified),-0.1%,-3.3,8%,3.4,-9%,1.5%,12%
CCc1ccccc1NC(=O)CNC(=O)c1ccc(OCc2cn3ccccc3n2)cc1,9.1%,-3.4,·,·,5%,·,-5%
CCCNC(=O)C(Cc1ccc(I)cc1)NC(=O)C1CC1 (stereo unspecified),0.3%,-2.9,·,·,-16%,1.1%,6%
Nc1cc(S(=O)(=O)C(F)(F)F)ccc1C(=O)O,-0.3%,-2.7,11%,2.4,-8%,-6.8%,4%
CC(=O)OCC(=O)Nc1ccc(N=Nc2ccccc2)cc1,3.9%,-6.7,12%,-0.1,-14%[15.4 µM],1.1%,7%
O=C(c1cccc(F)c1)N1CCC2(CC1)CN(c1ccccn1)C2,0.7%,·,-6%,-0.5,·,·,·
CCc1nnc2sc(-c3ccc(NC(=O)CSc4ccc(Cl)cc4)cc3)nn12,2.3%,-0.6,·,·,-1%,-2.3%,-11%
COc1cc(NC(=O)CN2C(=O)CSc3ccc(S(=O)(=O)N4CCCC4)cc32)cc(OC)c1,0.1%,-0.3,16%,5.7,15%,-4.3%,-5%
COc1ccc(NC(=O)CN(C)S(=O)(=O)c2ccc(Cl)cc2)cc1Cl,2.6%,0.1,8%,1.9,-35%,-2.0%,-19%
CC1CCCC(C)N1CCCNC(=O)Cn1cc2c(n1)CCCC2 (stereo unspecified),-1.7%,-3.7,-1%,-5.8,-25%,-5.8%,10%
O=C(Nc1ccc(S(=O)(=O)N2CCCCC2c2cccnc2)cc1)c1ccccc1F (stereo unspecified),-0.4%,10,23%,-0.3,-8%,0.6%,?
CC(C)CN(C(=O)c1cccc(S(=O)(=O)N2CCN(Cc3ccccc3)CC2)c1)C1CCS(=O)(=O)C1 (stereo unspecified),-0.9%,-4.5,·,·,-1%[15.4 µM],-3.2%,-2%
Cc1ccc(C(=O)N2CCCC(Nc3ccc(C(C)C)cc3)C2)cn1 (stereo unspecified),0.9%,0.5,6%,·,-47%[inhibitor],-0.2%,18%
C[C@H]1COC(=O)CCC/C=C\C[C@H](CC(=O)N(CCO)Cc2ccccc2)C(=O)N1,0.0%,-0.6,·,·,·,0.4%,5%
Nc1cc(=O)[nH]c2ncnn12,-5.1%,-3.8,·,·,1%,-5.1%,-11%
CC(=O)NCCNc1nc(-c2c(C)noc2C)nc2ccccc12,0.0%,·,29%,13,·,·,·
Cc1cccc(/C=C/C(=O)c2ccc(NC3=NCCCS3)cc2)c1,-1.2%,-3.1,-14%,4.2,19%,-1.1%,5%
O=c1c([N+](=O)[O-])cccn1Cc1ccccc1Cl,-1.0%,-1.4,17%,-7.2,19%,0.2%,-5%
COc1ccc2[nH]cc(C(=O)N3CCCCC3)c(=O)c2c1,0.8%,-4.1,6%,1.0,-17%,?,8%
COc1ccc(NC(=O)CN(C)S(=O)(=O)c2ccc3c(c2)OCCO3)c2ncccc12,-1.6%,-3.2,-11%,-1.3,-7%,-9.4%,-11%
Cc1nc2ccccn2c1C(=O)NCCCN1CCOCC1,-0.2%,-4.5,13%,-0.9,16%,-15%,11%
CC1CCN(C(=O)Cn2cnc3c(cnn3C(C)(C)C)c2=O)CC1,-0.5%,-8.1,10%,0.2,-8%[15.4 µM],0.0%,1%
CSc1n[nH]c(NCc2ccccc2)n1,1.6%,-1.0,20%,-0.5,6%,0.9%,3%
CC(C)=NNc1nc(-c2ccccc2)cs1,1.7%,-0.8,79µM*,3.5,-11%,0.5%,12%
O=C1CC(SC(=NCc2ccc3c(c2)OCO3)Nc2ccccc2)C(=O)N1c1ccccc1 (stereo unspecified),12%,-2.6,?,4.5,4%,2.7%,6%
CN(C)Cc1ccccc1-c1nc(N2CCOCC2)c2ccccc2n1,0.2%,·,29%,-0.5,·,·,·
Cn1c(=O)n(CC(=O)NCc2cccnc2)c2ccccc21,8.3%[38.3 µM],-2.5,12%,3.1,6%,-0.7%,11%
C#CCn1c(-c2ccccc2)ccc(C#N)c1=O,-0.9%,0.9,-7%,-0.1,15%,·,-8%
O=c1cc[nH]c2c1ccc1cccnc12,2.2%,-1.8,·,·,20%,-3.5%,4%
CC(=O)c1c(O)cc(O)cc1CC(=O)O,0.8%,3.9,4%,·,·,-5.9%,-7%
COc1ccc(C(=O)NC(=O)N2CCCCC2)cc1,1.7%,-2.3,6%,1.0,0%,-3.8%,9%
Cc1ccc(C)c(SCC(=O)OCC(=O)N2CC(C)OC(C)C2)c1 (stereo unspecified),1.8%,7.2,19%,-0.6,-4%[15.4 µM],0.5%,6%
O=C(O)[C@@H]1CCCN(S(=O)(=O)c2cccc3cccnc23)C1,1.6%,-2.9,·,·,·,0.7%,12%
COC(=O)c1sccc1NC(=O)Nc1cccc(C)c1C,3.2%,1.4,5%,·,10%,-0.3%,4%
CC(C)C(=O)N1CCN(c2nc(-c3ccc(Cl)cc3)cs2)CC1,1.9%,1.0,12%,-5.6,-15%,1.2%,?
O=C(c1ccc(S(=O)(=O)NCc2ccco2)cc1)N1CCCC1,-1.1%,7.7,3%,-1.5,29%,·,7%
CCOc1ccc(CN(C)C(=O)CCc2ccc(S(=O)(=O)N3CCCCCC3)cc2)cc1,4.5%,1.9,·,·,?,-0.1%,?
Cc1cc(C)c2cc(CN(CCO)Cc3nnnn3Cc3ccc(F)cc3)c(=O)[nH]c2c1,1.0%,-1.0,4%,-0.1,-4%,20µM*,10%
O=C(CSc1nc2cc(S(=O)(=O)N3CCOCC3)ccc2o1)Nc1c(F)cccc1F,-2.1%,-4.8,13µM*,-0.9,6%,·,-7%
O=C(COC(=O)c1ccc2ncsc2c1)NCc1cccc(Cl)c1,0.7%,-1.0,·,·,26%,0.9%,-3%
O=C(O)c1cccc(NS(=O)(=O)c2ccc3nnn(O)c3c2)c1,0.7%,-3.7,?,4.3,23%,-0.1%,-5%
Cn1c(=O)c2c(nc(SCC(=O)NCc3ccco3)n2C)n(C)c1=O,·,-3.0,24%,-0.2,7%,0.4%,6%
COc1ccc(N(CC(=O)Nc2ccc3c(c2)OCO3)S(=O)(=O)c2ccc(C)cc2)cc1OC,-1.1%,-0.7,-7%,1.0,-30%[inhibitor],·,-16%
CC(C)(C)c1ccc(-c2nc(C#N)c(NCc3ccncc3)o2)cc1,10%[38.3 µM],-1.7,?,2.5,-26%,?,?
CC(C)(C)NC(=O)CSc1ncccc1-c1nc2ccccc2[nH]1,-0.4%,12,13%,-2.1,7%,·,2%
Cc1ccc(C(=O)N/C(=C\c2ccc(F)cc2)C(=O)NCCN2CCOCC2)cc1,0.8%,-0.1,8%,·,?,·,2%
CCCCc1ccc(NC(=O)N[C@H](C(=O)O)C(C)C)cc1,-0.4%,-0.7,9%,1.3,-45%[inhibitor],1.6%,-6%
Cc1ccccc1NC(=O)c1ccccc1O,-2.7%[38.3 µM],-5.3,19%,1.8,4%,?,?
